Assay outcomes from PubChem.
VDR inhibitor: vitamin D3 receptor (human) inhibition; P11473; VDR-SRC2-3 peptide fluorescence polarization, 2 h; Potency, µM, inactives show max response, negative = inhibition, actives largely listed as inhibitors; 0.93% of 400,000 active; AID 504847; active = well fitted inhibition curve with a large enough effect; inconclusive = small, poorly fitted or top-dose-only effect, or another doubt; inactive = no such curve, though single readings can be large or run the other way; note: series mostly up to about 120 µM
Target sequence (P11473 whole entry, looked up): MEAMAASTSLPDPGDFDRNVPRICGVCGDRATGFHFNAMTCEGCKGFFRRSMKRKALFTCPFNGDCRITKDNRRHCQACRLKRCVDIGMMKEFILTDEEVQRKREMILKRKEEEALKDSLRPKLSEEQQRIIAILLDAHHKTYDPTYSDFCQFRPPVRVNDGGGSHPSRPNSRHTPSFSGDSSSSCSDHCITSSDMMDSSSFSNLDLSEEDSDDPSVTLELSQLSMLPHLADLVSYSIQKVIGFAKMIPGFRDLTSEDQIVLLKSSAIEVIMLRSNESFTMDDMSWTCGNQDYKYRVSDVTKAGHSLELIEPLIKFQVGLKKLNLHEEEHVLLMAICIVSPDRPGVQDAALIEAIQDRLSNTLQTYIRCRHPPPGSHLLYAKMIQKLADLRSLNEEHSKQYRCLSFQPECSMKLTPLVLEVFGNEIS
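Measured by FP: displacement of SRC2-3 coactivator peptide from VDR by library compounds, following a two-hour ambient incubation.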
Active calls of the source: *; ? = inconclusive. % is set by controls: 0 for no effect and ±100 for the full control effect; potency is the fitted concentration of half-maximal effect. Not all compounds are listed (hit frequency here may not be typical).

SMILES	VDR inhibitor
O=C(Nc1ccccc1)N1CC[C@@]2(CCCN(C(=O)c3cnccn3)C2)C1	-8%
COc1ccc(CNC(=O)CCN2C(=O)c3ccccc3S2(=O)=O)cc1	-5%
O=C(COC(=O)C1CC2C=CC1C2)NCc1ccc(F)cc1 (stereo not given)	-10%
O=C1C(Cl)=C(N2CCCCCC2)C(=O)N1c1ccc(Cl)cc1	10%
COc1ccc(NC(=O)c2sc(SC)nc2N)cc1	2%
CCOc1ccc(-n2c(C)c(C(C)=O)c3cc(OC(C)=O)ccc32)cc1	-3%
S=c1[nH]nc(-c2ccco2)n1/N=C/C=C/c1ccccc1	-28%
COc1ccc(Cl)cc1NS(=O)(=O)c1ccc(OC)c(OC)c1	4%
O=C1CC(NN2CCCCC2)C(=O)N1c1ccccc1 (stereo not given)	-15%
O=C(CCN1C(=O)c2ccccc2C1=O)Nc1ccc(-c2nc3ccccc3o2)cc1	2%
COc1ccc(C(=O)NC(C)Cn2nc(C)cc2C)cc1OC1CCN(C(C)=O)CC1 (stereo not given)	-11%
O=[N+]([O-])c1ccc(-c2ccc(S(=O)(=O)NCCN3CCCC3)cc2)cc1	-14%
Cc1ccc(S(=O)(=O)N2CCN(S(=O)(=O)N3CCC(C)CC3)CC2)cc1C	-1%
CC(C)C(=O)Nc1cccc(NC(=O)c2cccnc2)c1	-13%
CCOc1ccc(C(=O)CSc2nnc3cc(C)c4ccccc4n23)cc1	4%
CCN1CCN(Cc2c(O)ccc3c2O/C(=C\C=C\c2ccccc2)C3=O)CC1	-9%
COc1cc(N2C(=O)CSC23C(=O)N(C)c2ccccc23)cc(OC)c1OC (stereo not given)	2%
CCCS(=O)(=O)NCCc1csc(-c2ccc(OC)c(OC)c2)n1	0%
Cc1ccccc1C(=O)NCC(=O)c1ccccc1	0%
CC(C)C[C@@H](CNCC(=O)[C@H](Cc1ccccc1)NC(=O)c1[nH]cnc1C(=O)N[C@H](CN)CC(C)C)NC(=O)c1nc[nH]c1C(=O)N[C@@H](CC(=O)O)C(=O)O	?

At a glance, five of the compounds above:
SMILES	VDR inhibitor
O=C(Nc1ccccc1)N1CC[C@@]2(CCCN(C(=O)c3cnccn3)C2)C1	-8%
COc1ccc(CNC(=O)CCN2C(=O)c3ccccc3S2(=O)=O)cc1	-5%
O=C(COC(=O)C1CC2C=CC1C2)NCc1ccc(F)cc1 (stereo not given)	-10%
O=C1C(Cl)=C(N2CCCCCC2)C(=O)N1c1ccc(Cl)cc1	10%
COc1ccc(NC(=O)c2sc(SC)nc2N)cc1	2%

Following part
SMILES	VDR inhibitor
O=C(COC(=O)c1ccc(NS(=O)(=O)c2ccc3c(c2)OCCO3)cc1)NCC1CCCO1 (stereo not given)	15%
CCn1nnnc1-c1ccc(OC)c(S(=O)(=O)Nc2ccc(C(=O)OC)cc2)c1	1%
CC1CCCC(C)N1/N=C/c1ccc(C(=O)O)cc1 (stereo not given)	-26%
Nc1ccc(C(=O)N2CCN(S(=O)(=O)/C=C/c3ccccc3)CC2)cc1[N+](=O)[O-]	3%
CCOC(=O)COc1ccc(C)cc1C(=O)c1ccn2nc(-c3ccc(C)cc3)cc2n1	-10%
COC(=O)c1cc(NS(=O)(=O)c2ccc(C(C)C)cc2)ccc1N1CCOCC1	5%
CCOc1ccc(NS(=O)(=O)c2ccc(C(=O)NCC(c3ccc(OC)cc3)N3CCCC3)cc2)cc1 (stereo not given)	-2%
Cc1[nH]c(=O)[nH]c(=O)c1/C=N/NC(=O)CCNC(=O)OC(C)(C)C	6%
Cc1nnc2c(NCC(C)c3ccccc3)nc3ccccc3n12 (stereo not given)	12%
Cc1cccc(C)c1Nc1oc(-c2ccccc2)nc1-c1ccccc1F	-2%
O=C(COc1ccccc1/C=C\c1[nH]c(=O)[nH]c(=O)c1[N+](=O)[O-])Nc1ccccc1	20µM*
O=C(NNC(=O)c1ccc(Cl)s1)c1csc(N2CCOCC2)n1	-24%
CCOC(=O)c1ccc(N2C(=O)CC(NNC(=O)c3ccc(Br)s3)C2=O)cc1 (stereo not given)	6%
O=S1(=O)CC(O)C(Nc2ccccc2)C1 (stereo not given)	-16%
Cc1cccc(N(CC(=O)NC(C)(C)C)C(=O)CS(=O)CC(=O)Nc2ccc3c(c2)OCO3)c1 (stereo not given)	-18%
CCS(=O)(=O)Nc1ccc(Cc2ccncc2)cc1	-1%
CCc1ccc2oc(-c3cc(N)ccc3O)nc2c1	14%
O/N=C(/c1ccccc1)c1cc2cc(Br)cc(Br)c2o1	-7%
COc1cccc(NC(=O)Cc2csc(COc3cccc(C)c3)n2)c1	1%
CCn1c(CNC(=O)c2ccccc2F)cc2cc(C)ccc21	-16%
O=C(COc1ccccc1F)OCc1cc(=O)n2nc(-c3cccs3)sc2n1	-1%
Cc1ccc(-c2cc(C(=O)Oc3ccc(C#N)cc3)no2)cc1C	6%
COc1ccc(CC(=O)Nc2ccc3c(c2)C(=O)N(CCC(=O)O)C3=O)cc1	-17%
COc1ccc(CCN2CC(C(=O)O)CC2=O)cc1OC (stereo not given)	-21%
COc1ccc(NC(=O)Nc2nnc(-c3ccccc3SCc3ccccc3)s2)cc1	7%
COCCOC(=O)C1=C(C)NC(=O)NC1c1ccco1 (stereo not given)	-1%
CCOC(=O)c1cc[nH]c1C	23%
COc1cccc(-c2nc(NCc3cccnc3)c3ccccc3n2)c1O	7%
O=C(NCCCN1CCCCCC1)C1CCCN(S(=O)(=O)c2cccc3nsnc23)C1 (stereo not given)	-6%
CCOc1ccc(N(C(=O)c2snc(C(N)=O)c2N)C(C(=O)NCC2CCCO2)c2c[nH]c3ccccc23)cc1 (stereo not given)	-22%
CCCc1cc(C(=O)N2CCN(c3ccc(C(F)(F)F)cn3)CC2)sc1C	-7%
O=c1[nH]cccc1-c1nc2ccccc2n1Cc1cccc(F)c1	-1%
COC(=O)c1ccc(CN2CCN(Cc3ccccc3)C(CCO)C2)cc1 (stereo not given)	6%
COC(=O)C1C(O)C(C)C(O)C(C)(O)/C=C\C=C(/C)C(=O)Nc2c(C)c(OC(C)=O)c3c(c2O)C(=O)C(C)=C2OCOC(=C23)/C(C)=C/C(C)(O)C(O)C(C)C1O (stereo not given)	-3%
CC(C)n1nnnc1SCC(=O)NCCc1ccccc1	-14%
CCN(C1CCCCC1)S(=O)(=O)c1ccc(S(=O)(=O)NCCc2ccncc2)cc1	-3%
CC(=O)N1CCc2c(sc3nc(SCC(C)C)n(-c4ccc(C)c(Cl)c4)c(=O)c23)C1	-3%
O=C(CSc1nc2ccc(Cl)cc2[nH]1)N1CCN(C(=O)c2ccco2)CC1	-14%
O=C(COc1ccccc1F)NNC(=O)c1cc(Br)ccc1Cl	-3%
C=CCNC(=S)NCCO	-6%
CC(=O)c1ccc(NS(=O)(=O)c2ccc(C(C)(C)C)cc2)cc1	?
CCCC(=O)Nc1cccc(Oc2nc(C)cc(C)c2C#N)c1	?
C/C(=N\N1CCN(Cc2ccccc2Cl)CC1)c1ccc(F)cc1	-4%
O=C(Nc1ccccc1)c1c2c(nc3ccccc13)CCCC2	21%
COc1ccc2c([N+](=O)[O-])c(Cl)[nH]c2c1	-23%
COc1ccc(-n2c(=O)c3ccccc3c3ccccc3c2=O)cc1	-4%
CCOC(=O)[C@H]1[C@H]2COc3ccc(Cl)cc3[C@@H]2N2C(=O)CN(C)C(=O)[C@@]12C	1%
COc1ccc(CCNC(=O)CN(c2ccc(C)cc2)S(=O)(=O)c2ccc(OC)cc2)cc1	-6%
COc1ccc(C2c3c(oc4ccccc4c3=O)C(=O)N2c2ccccn2)cc1 (stereo not given)	6%
Cc1cccc(NC(=O)Cn2c(=O)nc(-c3ccccc3)c3ccccc32)c1C	7%
CC(OC(=O)C12CC3CC(CC(O)(C3)C1)C2)C(N)=O (stereo not given)	13%
COc1ccc([C@H]2CC(=O)C=C(c3cccc(Br)c3)C2)cc1	10%
COc1ccc(-c2cc(=O)[nH]c(=O)[nH]2)cc1	-6%
O=C(CCCN1C(=O)c2cccc3cccc(c23)C1=O)Nc1ccon1	-10%
O=C1CCNc2ccc(-c3ccccc3)cc21	-21%
COP(=O)(CN(Cc1ccccc1)C(=S)Nc1c(C)cccc1C)OC	5%
COc1ccc(CNC(=O)CN2C(=O)CSc3ccc(S(=O)(=O)N4CCCCC4)cc32)cc1	6%
Cc1ccc(S(=O)(=O)N2CCN(c3nc(C)c4c(c3C#N)CC(C)(C)OC4)CC2)cc1	9%
CCOC(=O)N/N=C/c1ccc(F)cc1	18%
COc1ccc(C(C)C(=O)c2ccc(O)cc2O)cc1 (stereo not given)	1%

Overlap with the part before: 4 entries; new compounds follow.
SMILES	VDR inhibitor
COc1ccc(CNC(=O)CN2C(=O)CSc3ccc(S(=O)(=O)N4CCCCC4)cc32)cc1	6%
Cc1ccc(S(=O)(=O)N2CCN(c3nc(C)c4c(c3C#N)CC(C)(C)OC4)CC2)cc1	9%
CCOC(=O)N/N=C/c1ccc(F)cc1	18%
COc1ccc(C(C)C(=O)c2ccc(O)cc2O)cc1 (stereo not given)	1%
CC(=O)c1cccc(CN(C)CC2CCCN(CCc3ccccc3C)C2)c1 (stereo not given)	-1%
O=C(CN1C(=O)c2cccc([N+](=O)[O-])c2C1=O)N1CCN(c2ccc(F)cc2)CC1	-12%
COc1cccc(NC(=O)CN(C)C(=O)CSc2nc3ccccc3s2)c1	-13%
Cn1cc(CN2CCc3ccccc3C2)c2ccccc21	-9%
O=C(c1ccc(NC2=NC3CS(=O)(=O)CC3S2)cc1)N1CCN(C(=O)c2ccco2)CC1 (stereo not given)	-16%
O=C(Cn1nc(C(F)(F)F)cc1C1CC1)Nc1ccccc1F	-18%
O=C(Nc1ccc(F)cc1F)NC1CC(=O)N(Cc2ccccc2)C1 (stereo not given)	-10%
CCOC(=O)N1CCC(NC(=O)CSCc2nc(-c3ccc(OC)c(OC)c3)oc2C)CC1	-10%
CCCCC(=O)N1CCN(c2ccc(OC)cc2[N+](=O)[O-])CC1	-9%
CC(=O)Nc1ccc(S(=O)(=O)NCc2ccccn2)cc1	2%
CCN(CC)c1cccc(OCC(=O)N(C)CCC#N)c1	-12%
O=C(NC(=S)N(CCc1ccccc1)CCc1ccccc1)c1ccco1	-1%
Cc1ccc(NC(=O)C2CCN(C(=O)NC3CCCCC3)CC2)cc1Cl	-10%
O=C1CSC(c2ccc3c(c2)OCO3)N1c1ccc(Oc2ccccc2)cc1 (stereo not given)	-19%
O=C(COC(=O)Cc1ccc(Cl)cc1)NC1CCCC1	-8%
CN1CCN(S(=O)(=O)c2ccc(Nc3ccc(F)cc3)c([N+](=O)[O-])c2)CC1	6%
COc1ccc(/C=C(\NC(=O)c2ccco2)C(=O)NCc2ccco2)cc1	1%
C=CCN(c1ccccc1Cl)S(=O)(=O)c1cc(C(=O)N2CCCC2)ccc1Cl	-17%
O=C(COC(=O)c1ccc(O)cc1)Nc1cc(C(F)(F)F)ccc1Cl	9%
O=C(Nc1ccc(N2CCOCC2)cc1)c1cccnc1	12%
O=C(NCc1cccnc1)Nc1ccc(F)cc1F	-14%
Cc1c(Cl)cccc1NC(=O)c1cc2sccc2n1Cc1ccc(F)cc1	3%
Cc1cc(C(=O)NNC(=O)NC(C)C)no1	5%
COc1ccc(CNC(=O)COC(=O)c2cnccn2)cc1	?
CN(C)C(=O)CSc1nc(-c2ccccc2)nc2c1CCCC2	-2%
O=C(/C=C/c1ccccc1)NC(=S)NNC(=O)c1ccco1	-13%
O=C(C1=C(O)C(=O)N(CCCn2ccnc2)C1c1cccc(Br)c1)c1ccco1 (stereo not given)	-16%
COc1ccc(C(=O)Nc2cc(C(C)C)c(O)c(S(=O)(=O)c3ccc(OC)cc3)c2C)cc1	-16%
Cc1ccc(Cn2c(C3CCCN3c3nc(-c4ccc(F)cc4)cs3)nc3cc(C(F)(F)F)ccc32)cc1 (stereo not given)	-8%
O=C(OC(C(=O)NCC1CCCO1)c1ccc(F)cc1)c1cccs1 (stereo not given)	0%
Cc1ccc(CN2CCN(CC(=O)N/N=C/c3ccc(C)o3)CC2)cc1	-13%
O=C(O)c1ccc(N/N=C/c2ccc3ncccc3c2)cc1	-11%
CCN(C/C=C/c1ccccc1OC)Cc1ccccc1	10%
COc1ccc(C)cc1NC(=O)CCCN1C(=O)CN(C)C1=O	14%
CCC(C)NC(=O)COC(=O)c1ccc(Cl)cc1O (stereo not given)	-15%
CC1(C(=O)NC2CCCC2)CCC(=O)N1CCC1=CCCCC1 (stereo not given)	6%
COc1cc(OC)c(C(=O)NCc2ccc3c(c2)OCO3)cc1OC	-6%
Cc1ccc(S(=O)(=O)N2CCN(CN3C(=O)CC4(CCCC4)C3=O)CC2)cc1	16%
CN=C(Nc1ccc(C(=O)OC)cc1)SC1CC(=O)N(c2ccccc2F)C1=O (stereo not given)	-10%
CCOC(=O)c1cc(-c2ccccc2)n(CCCC(=O)Nc2ccccc2C)c1C	12%
OB(O)c1ccc(Cl)s1	-19%
CC(=O)N(Cc1cc2cc(C)ccc2[nH]c1=O)c1cccc(C)c1C	-2%
O=C(COC(=O)c1ccccc1Nc1ccccc1)Nc1ccccc1	0%
